Compound activity: PubChem BioAssay, National Center for Advancing Translational Sciences (NCATS)
GLA spleen mod: alpha-galactosidase A (human) modulation; P06280; human spleen homogenate, 4MU-alpha-Gal fluorescence, 40 min; AID 2107; Potency, µM (titrated, usually from 80 µM), for inactives: at the highest dose activity change, negative = inhibition, hits mostly inhibitors; hit rate 0.008% among 240,000;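 note: 0% = enzyme with vehicle and -100% = no enzyme basal signal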
Target sequence (P06280 32-429 limits assumed): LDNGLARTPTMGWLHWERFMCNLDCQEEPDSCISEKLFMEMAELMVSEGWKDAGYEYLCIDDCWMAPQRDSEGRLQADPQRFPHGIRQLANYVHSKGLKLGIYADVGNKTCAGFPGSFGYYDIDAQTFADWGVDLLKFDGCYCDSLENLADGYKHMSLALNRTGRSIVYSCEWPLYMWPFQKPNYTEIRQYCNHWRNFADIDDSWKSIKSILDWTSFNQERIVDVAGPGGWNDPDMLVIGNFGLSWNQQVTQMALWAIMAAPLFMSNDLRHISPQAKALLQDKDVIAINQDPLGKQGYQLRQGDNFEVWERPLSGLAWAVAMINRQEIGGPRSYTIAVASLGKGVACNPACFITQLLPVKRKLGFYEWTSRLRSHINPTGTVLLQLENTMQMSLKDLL
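Human spleen homogenate (1 ug) was the enzyme source, with 4-methylumbelliferyl-alpha-D-galactopyranoside (1 mM final) in pH 5.0 citrate buffer with 0.01% Tween-20. Compounds were titrated; after 40 min at 37C, NaOH/glycine stop, 4-MU fluorescence read; AC50 from Hill fits.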
Tau fluor cs: counter-screen for tau fibril formation inhibitors; tau K18 P301L Alexa594 fluorescence, heparin fibrillization; Potency, µM (doses to about 57.7 µM), inactives show at the top dose activity change, negative = decrease; hit rate 0.93% among 280,000; AID 1463; note: nearly all actives have a fitted effect of over 55% in size
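Human tau K18 P301L (15 uM unlabeled, 0.24 uM Alexa 594-labeled) in 100 mM sodium acetate pH 7 with 20 uM heparin, 6 hr at 37 C. ThT 30 uM added, 1 hr ambient; Alexa 594 FP and total fluorescence read at 555/632 nm.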
Tau ThT inhib: blocks human tau fibril formation measured by thioflavin T. P10636. hit rate 2.1% among 270,000. recombinant tau K18 P301L (four-repeat tau fragment), heparin-induced fibrillization, ThT fluorescence. Potency, µM (titrated, usually from 57.4 µM), for the others: at the top dose activity, negative = inhibition, usual class: inhibitors; note: nearly all actives have a fitted effect of over 55% in size
Target sequence (P10636 561-689 P618L limits assumed): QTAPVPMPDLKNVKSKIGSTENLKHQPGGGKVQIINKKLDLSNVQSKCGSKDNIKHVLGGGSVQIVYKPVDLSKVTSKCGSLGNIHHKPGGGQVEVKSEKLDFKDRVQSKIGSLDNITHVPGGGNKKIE
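K18 P301L tau (15 uM + 0.24 uM Alexa 594-tagged), heparin 20 uM, NaOAc pH 7, 6 h 37 C; ThT 30 uM, 1 h RT, ex 450/em 510 nm.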
TR SRC2 fluor cs: counter-screen for TRb-SRC2 inhibitors: fluorescence interference; TRb/SRC2 Texas Red total fluorescence interference; Potency, µM (highest dose often 106 µM), for inactives: at the top dose fluorescence change, negative = quenching; hit rate 0.29% among 280,000; AID 1479; active = well fitted curve in either direction with a large enough effect; inconclusive = small, poorly fitted or top-dose-only effect
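Flags fluorescent or light-absorbing compounds by total fluorescence, S + 2P, at 555 nm excitation and 632 nm emission. Mixture: 20 nM Texas Red SRC2 peptide, 0.6 uM human TRb LBD, 1 uM T3, 5% DMSO; compound exposure 5 h at ambient temperature.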
L3MBTL1 inh: L3MBTL1 (human) inhibition. AlphaScreen L3MBTL1–H3K9me1 peptide binding. Potency, µM (series often up to 57.1 µM), for the others: at the highest dose activity, negative = inhibition, most hits filed as inhibitors. Q9Y468. hit rate 0.66% among 230,000; note: nearly all actives have a fitted effect of over 60% in size
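L3MBTL1 50 nM + b-AHA-H3(1-15)K9me1 75 nM, 30 min RT; compound added, 30 min RT; streptavidin donor/Ni-chelate acceptor beads 10 ug/mL each final, 30 min RT dark; AlphaScreen read.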
Tau FP inhib: inhibitors of human tau fibril formation | hit rate 0.39% among 280,000 | Potency, µM (top dose mostly 57.7 µM), for the others: top-dose activity, negative = inhibition, actives largely listed as inhibitors | AID 1468 | K18 P301L tau heparin fibrillization, Alexa594 FP, 6 h | P10636; note: nearly all actives have a fitted effect of over 55% in size
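Human tau K18 […] P301L fragment, 15 uM unlabeled plus 0.24 uM Alexa 594-labeled tau (final), with compound and 20 uM heparin in 100 mM sodium acetate pH 7; 6 hr at 37 C, then Alexa 594 FP read.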
TRb SRC2 PPI: TRbeta-SRC2 interaction inhibition; hit rate 0.065% among 280,000; TRbeta-SRC2 peptide binding, fluorescence polarization; receptor liganded with 1 µM T3; AID 1469; Potency, µM (titrated, usually from 106 µM), inactives show at the highest dose activity change, negative = inhibition, most hits filed as inhibitors;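 note: plate controls were bound peptide for no effect and peptide without receptor for full effect; nearly all actives have a fitted effect of over 50% in size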
Target sequence (P10828 whole entry, looked up): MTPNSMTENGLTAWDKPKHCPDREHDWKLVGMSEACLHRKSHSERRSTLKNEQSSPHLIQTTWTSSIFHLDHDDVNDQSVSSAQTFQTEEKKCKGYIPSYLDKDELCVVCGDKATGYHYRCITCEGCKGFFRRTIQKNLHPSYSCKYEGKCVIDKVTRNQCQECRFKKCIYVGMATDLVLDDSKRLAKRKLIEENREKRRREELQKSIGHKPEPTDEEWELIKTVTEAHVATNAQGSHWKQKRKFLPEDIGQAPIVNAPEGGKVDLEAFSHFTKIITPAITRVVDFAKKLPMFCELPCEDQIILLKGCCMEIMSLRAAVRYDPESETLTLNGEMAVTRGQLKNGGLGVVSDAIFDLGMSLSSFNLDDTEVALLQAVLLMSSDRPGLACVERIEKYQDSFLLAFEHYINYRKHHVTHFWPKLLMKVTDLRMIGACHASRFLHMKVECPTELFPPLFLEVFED
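Quantitative HTS by FP: 0.6 uM TRb LBD, 20 nM labeled SRC2 20-mer, 1 uM T3, 5% DMSO; 5 hr ambient incubation; % activity per concentration and potencies from concentration series.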
The depositor's hits bear a star; ? = inconclusive; . = no result given; ! = repeats disagree; [ ] = dose if it differs, or a comment. Unless noted, calls come from the whole dose curve; as a rule, active = well fitted curve in the direction sought with a large enough effect; inconclusive = small, poorly fitted or top-dose-only effect, or another doubt; inactive = no such curve, though single readings can be large; an effect the other way counts as inactive or inconclusive. Unless noted, % is set by controls: 0 for no effect and ±100 for the full control effect; potency is the fitted concentration of half-maximal effect. An excerpt; rates above refer to the full screens.

The opening 2 records, ahead of the listing:
Structure,GLA spleen mod,Tau fluor cs,Tau ThT inhib,TR SRC2 fluor cs,L3MBTL1 inh,Tau FP inhib,TRb SRC2 PPI
OCc1nc2ccccc2n1C/C=C/c1ccccc1,2.7%,-2.1%,5.5%,0.6%,-1.8%,-0.7%,-4.8%
COC(=O)c1ccc(NC(=O)c2ccco2)cc1,8.2%,-1.0%,-10.9%,-0.3%,3.7%,4.1%,-1.6%

The whole of this part (from the top)
Structure,GLA spleen mod,Tau fluor cs,Tau ThT inhib,TR SRC2 fluor cs,L3MBTL1 inh,Tau FP inhib,TRb SRC2 PPI
OCc1nc2ccccc2n1C/C=C/c1ccccc1,2.7%,-2.1%,5.5%,0.6%,-1.8%,-0.7%,-4.8%
COC(=O)c1ccc(NC(=O)c2ccco2)cc1,8.2%,-1.0%,-10.9%,-0.3%,3.7%,4.1%,-1.6%
COc1cc(SC)ccc1C(=O)N1CC(C)OC(C)C1 (centres undefined),-0.7%,-8.4%,-6.5%,-6.5%,8.2%,-1.0%,3.5%
COC(=O)CCC(=O)OC1(C)C(=O)C2=CN(CC3CC3)C(c3ccc(OC)cc3)=CC2=C(Br)C1=O (centres undefined),-6.0%[17.5 µM],-3.6%[11.6 µM],11.2µM*!,-3.5%[11.2 µM],.,?,4.3%[11.2 µM]
COc1ccc(C(C)(C)C)cc1S(=O)(=O)N1CCC(C(N)=O)CC1,-6.2%,1.4%,-0.3%,-1.2%,11.7%,2.7%,-9.3%
COc1ccc(-n2c(SCC(=O)Nc3cc(C)on3)nc3c(c2=O)SCC3)cc1,2.8%,3.5%,3.0%,-6.2%,1.9%,0.2%,-8.3%
O=C(O)CC(NC(=O)OCc1ccccc1)c1ccccc1 (centres undefined),7.5%,-2.3%,1.6%,1.2%,2.3%,-6.3%,-2.2%
CC(=O)N1CCN=C1SCc1ccc(C)cc1,5.8%,3.2%,-5.0%,-0.2%,9.3%,0.6%,1.0%
Cc1ccccc1OCC(=O)NNC(=O)C1CCCCC1C(=O)O (centres undefined),2.8%,0.5%,-1.4%,-1.0%,-1.1%,8.0%,-11.1%
CCC(=O)n1nc(NCc2ccc(OC)c(OC)c2)nc1NCc1ccc(OC)c(OC)c1,-11.1%,-11.3%,-10.4%,-3.8%,-5.2%,5.1%,-3.8%
Cc1ccc(CCN2CC(C(=O)N3CCN(c4ccc(F)cc4)CC3)CC2=O)cc1 (centres undefined),-2.5%,-2.4%,-10.5%,-4.4%,0.0%,2.9%,5.5%
Cc1ccc(SC(C)C(=O)NC(N)=O)c(C)c1 (centres undefined),-9.1%,0.4%,2.6%,-2.2%,-7.8%,-2.2%,11.5%
CSc1nc2[nH]c3c(c2c2nncn12)CC(C)(C)OC3,4.0%,-3.8%,-8.0%,-2.8%,0.4%,-7.7%,10.1%
COc1ccc(OC)c(C2=NOC(C(=O)Nc3cc(C)nn3-c3ccccc3)C2)c1 (centres undefined),-3.4%,-8.7%,-7.7%,-0.2%,11.9%,-3.7%,0.6%
Cc1ccccc1C(=O)NNC1=NCCC1,8.8%,1.4%,-4.8%,-0.6%,.,5.3%,-0.2%

Following part
Structure,GLA spleen mod,Tau fluor cs,Tau ThT inhib,TR SRC2 fluor cs,L3MBTL1 inh,Tau FP inhib,TRb SRC2 PPI
CC(C)CCN1CCN(Cc2ccon2)CC1CCO (centres undefined),-2.1%,-5.5%,-4.6%,-3.5%,10.7%,-3.6%,-1.2%
Cc1cc(N2C(=O)[C@@H]3[C@H](C2=O)[C@@H]2C[C@H]3C(Br)C2Br)no1 (some centres undefined),-0.6%,1.0%,-6.4%,1.3%,10.6%,4.6%,-3.9%
O=C(c1cc([N+](=O)[O-])cc([N+](=O)[O-])c1)N(c1ccccn1)c1ccccn1,8.2%,-1.0%,-1.0%,2.3%,6.7%,0.9%,6.5%
C=CCN1C(=O)CS/C1=C(\C#N)S(=O)(=O)c1ccc(C)cc1,3.9%,-15.1%,-20.6%,39.8µM*[fluorescent],.,-2.4%,?
O=C(Nc1c(Cl)cc(Cl)cc1C(=O)NCCN1CCOCC1)c1cccc([N+](=O)[O-])c1,-6.7%,-7.8%,-2.7%,-3.7%,9.8%,-0.2%,-5.5%
O=C(CCOc1ccccc1)NCc1ccccc1,-6.9%,2.3%,4.5%,0.5%,8.5%,10.6%,-4.8%
CN(C)CCNC(=O)CNC(=S)N(Cc1ccccc1)Cc1cccnc1,2.2%,-7.0%,0.7%,-0.2%,8.8%,-1.0%,2.6%
Cc1ccc(S(=O)(=O)N(C)c2ccc(C(=O)NCC3CCCO3)cc2)cc1 (centres undefined),-1.1%,-3.2%,-1.6%,1.8%,-3.5%,-2.8%,-4.5%
O=C(CSc1nnc2ccc(-c3ccccn3)nn12)NCC1CCCO1 (centres undefined),2.0%,0.7%,-3.8%,-4.7%,0.2%,-3.5%,6.0%
CCSC1=NCCN1C(=O)C(C)(C)Oc1ccc(Cl)cc1,2.1%,-6.2%,-5.2%,-3.4%,22.0%,3.2%,-8.3%
COc1cccc(Nc2ncc3nc(-c4ccccc4)c(=O)n(C4CC4)c3n2)c1,-6.5%,.,.,.,.,.,.
Cc1ccc(-c2noc(CCCN3C(=O)c4ccccc4C3=O)n2)cc1,-10.6%,-19.6%,-6.3%,-0.4%,5.8%,-6.6%,-20.8%
C[C@H](CCC(=O)NCC(=O)O)[C@H]1CC[C@H]2[C@H]3[C@@H](C[C@@H](O)[C@]12C)[C@]1(C)CC[C@H](O)C[C@@H]1C[C@@H]3O,14.9%[29.1 µM],.,.,1.4%[53 µM],.,.,-0.8%[53 µM]
Cc1noc(C)c1COC(=O)[C@@H](NC(=O)c1ccccc1)C(C)C,-0.1%,-7.0%,-9.1%,-5.7%,7.6%,-5.7%,2.3%
Cc1noc(C)c1-c1nc(Nc2ccc(F)cc2)c2ccccc2n1,12.5%,.,.,.,.,.,.

(next part)
Structure,GLA spleen mod,Tau fluor cs,Tau ThT inhib,TR SRC2 fluor cs,L3MBTL1 inh,Tau FP inhib,TRb SRC2 PPI
CCOC(=O)N1CCN(CC(=O)Nc2c(C(=O)OC)[nH]c3cc(C)ccc23)CC1,4.8%,-16.2%,?,-3.8%,-5.6%,4.2%,-3.1%
COC(=O)/C(C#N)=C/c1occc1C,2.1%,3.3%,1.5%,-1.1%,5.8%,-4.4%,-1.3%
CC(=O)Nc1ccc(C(=O)NCCCOC(C)C)cc1,7.0%,-5.2%,0.7%,-1.5%,-7.7%,6.3%,5.4%
O=C(CCc1nnc(CCCCc2ccccc2)o1)N(CCO)Cc1ccccc1,4.3%,-3.1%,-13.8%,0.0%,4.2%,1.8%,-2.5%
CCOc1ccc(/C(CCC(=O)O)=N/NC(=S)NCCc2ccccc2)cc1,-14.0%,1.1%,?,-2.4%,-7.8%,-0.4%,-0.9%
COC(=O)/C(=N/Nc1ccccc1C)N1CCCc2ccccc21,1.9%,-19.9%,-12.3%,-1.4%,-0.2%,-0.8%,-3.9%
COc1ccc(Cl)cc1N(CC(=O)NC1CC1)S(=O)(=O)c1ccc(C)c([N+](=O)[O-])c1,-0.1%,-13.5%,-2.2%,0.1%,0.5%,-3.8%,-4.8%
COc1ccc(S(=O)(=O)NNC(=O)c2ccccc2-n2cccc2)cc1,-4.6%,-1.1%,-1.9%,1.1%,.,-2.6%,7.9%
CCN(C(=O)COC(=O)c1ccc(OC)c(S(=O)(=O)N2CCCc3ccccc32)c1)C1CCS(=O)(=O)C1 (centres undefined),1.2%,-8.6%,0.1%,-0.7%,6.4%,2.0%,0.3%
Cn1c(SCC(O)c2ccccc2)nnc1-c1ccc2ccccc2c1 (centres undefined),-2.5%,-13.2%,?,0.3%,-0.2%,-0.4%,-7.8%
CCOC(=O)c1ccccc1NC(=O)Cn1cnc2c1c(=O)n(C)c(=O)n2C,5.8%,-4.5%,-12.9%,4.7%,0.6%,5.5%,1.7%
Cc1nccn1-c1c2c(c(C#N)c3nc4ccccc4n13)CCC2,5.8%,-7.8%,-9.8%,3.3%,.,0.9%,-0.1%
CCOC(=O)C(Cc1ccccc1)(NC(C)=O)C(=O)OCC,3.5%,-0.1%,0.1%,-2.2%,.,-5.0%,2.5%
CC(C)(C)NC(=O)c1cccc(NC(=O)CSc2ccccc2)c1,0.9%,-6.4%,-2.8%,1.2%,2.8%,-10.0%,-16.7%
Nc1nc(Nc2ccccc2)n[nH]1,5.1%,-11.3%,-5.1%,4.0%,-1.8%,-11.2%,5.2%

Additional records.
Structure,GLA spleen mod,Tau fluor cs,Tau ThT inhib,TR SRC2 fluor cs,L3MBTL1 inh,Tau FP inhib,TRb SRC2 PPI
O=C(Cn1cc(C(=O)c2cccs2)c2ccccc21)NCc1cccs1,9.9%,?,-9.8%,-1.6%,-2.7%,-14.7%,-21.9%
COc1ccccc1C(=O)N(NC(=O)Oc1ccccc1)C(C)(C)C,-1.9%,11.2%,3.8%,-0.1%[53 µM],2.0%,1.8%,-8.0%[53 µM]
COCCNc1nc2nonc2nc1NC(C)c1ccccc1Cl (centres undefined),5.9%,-14.3%,2.6%,-4.7%,-4.6%,-15.4%,1.1%
COc1ccc(CCNC(=O)CSc2nc(N)c(C#N)c(-c3cccs3)c2C#N)cc1OC,1.8%,-21.7%,-5.8%,-1.0%,-7.3%,?,-5.8%
CCOC(=O)c1c(NC(=O)CSC(=S)N2CCOCC2)sc(C)c1C,5.4%,-8.2%,-9.6%,?,0.4%,-1.0%,1.1%
CCN(Cc1ccncc1)C(=S)Nc1ccc(Cl)cc1,3.2%,3.5%,0.2%,-2.5%,3.5%,3.0%,0.2%
CCc1c(C(=O)NN2C(=O)C3CCCCC3C2=O)csc1C (centres undefined),-7.6%,7.3%,4.2%,0.2%,0.1%,2.5%,-2.9%
C=CCSc1nc2ccccc2c(=O)n1Cc1ccccc1,-0.2%,-2.0%,0.6%,-3.3%,209.1%[activator],0.3%,-5.9%
O=C(Cc1ccccc1)Nc1ccc(-c2nnc(-c3ccco3)o2)cc1,2.8%,4.1%,?,1.4%,-5.5%,9.9%,-7.3%
O=C(CSc1ccc(-c2cccs2)nn1)c1cccs1,-19.3%,-29.9%,?,-0.8%,.,-3.7%,1.6%
O=C(NC1CC1)C1CCC(=O)N1C1CCCC1 (centres undefined),8.6%,0.9%,5.3%,2.2%,-0.5%,7.4%,-13.9%
Cc1ccc(-n2[nH]c(C)c(C=Nc3cc(C)ccn3)c2=O)cc1,-6.7%,-14.4%,?,0.5%,-7.6%,-3.2%,-10.9%
